LASV entry inh: qHTS for Inhibitors of binding or entry into cells for Lassa Virus | Lassa virus pseudotype entry inhibition, cell reporter; control for the full effect not named in the record | Potency, µM (series often up to 37.9 µM), inactives show top-dose activity change, negative = inhibition, actives largely listed as inhibitors | 300,000 tested, 1.2% active; active means well fitted inhibition curve with a large enough effect; inconclusive means small, poorly fitted or top-dose-only effect, or effect the other way; inactive means flat fitted curve, though single readings scatter; tested in HEK293 cells; further: on the % scale 0 is the no-effect control and ±100 the full control effect; nearly all actives have a fitted effect of over 50% in size; luciferase read-out
MARV entry inh: qHTS for inhibitors of binding or entry into cells for Marburg Virus; Marburg virus pseudotyped entry inhibition, cell reporter; control for the full effect not named in the record; about a third of the inactives were read at about 46 µM; Potency, µM (highest dose often 37.8 µM), for the others: at the highest dose activity change, negative = inhibition, actives largely listed as inhibitors; 300,000 tested, 1.8% active; AID 540276, 2011; active = well fitted inhibition curve with a large enough effect; inconclusive = small, poorly fitted or top-dose-only effect, or effect the other way; inactive = flat fitted curve, though single readings scatter; tested in HEK293 cells; about a fifth of its hits are not listed in these tables; further: on the % scale 0 is the no-effect control and ±100 the full control effect; luciferase read-out
NS1 inh: qHTS Assay for Inhibitors of Influenza NS1 Protein Function; S. cerevisiae slowed by influenza A NS1, growth recovery by OD600; Potency, µM (top dose mostly 46.1 µM), for inactives: at the top dose activity, positive = more growth; 270,000 tested, 0.4% active; active means well fitted rising curve with a large enough effect; inconclusive means small, poorly fitted or top-dose-only effect; inactive means no such curve, though single readings can be large or run the other way; further: nearly all actives have a fitted effect of over 50% in size
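A cell-based growth assay was used: compounds that relieve NS1-induced slow growth of budding yeast raise OD600. Assay medium was yeast nitrogen base with ammonium sulphate and -URA supplement, pH 6.0, with 2% galactose.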
Cruzain inh Det: qHTS Assay for Promiscuous and Specific Inhibitors of Cruzain (with detergent); Potency, µM, for inactives: max response, negative = inhibition, actives largely listed as inhibitors; purified cruzain, Z-FR-AMC fluorescence, 0.01% Triton; Cruzipain (Trypanosoma cruzi), P25779; 200,000 tested, 0.43% active; AID 1478, 2009;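 further: plate controls were neutral wells for no effect and buffer without enzyme for full effect; nearly all actives have a fitted effect of over 40% in size; top concentration of the series not given in the record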
Target sequence (P25779 123-467 limits assumed): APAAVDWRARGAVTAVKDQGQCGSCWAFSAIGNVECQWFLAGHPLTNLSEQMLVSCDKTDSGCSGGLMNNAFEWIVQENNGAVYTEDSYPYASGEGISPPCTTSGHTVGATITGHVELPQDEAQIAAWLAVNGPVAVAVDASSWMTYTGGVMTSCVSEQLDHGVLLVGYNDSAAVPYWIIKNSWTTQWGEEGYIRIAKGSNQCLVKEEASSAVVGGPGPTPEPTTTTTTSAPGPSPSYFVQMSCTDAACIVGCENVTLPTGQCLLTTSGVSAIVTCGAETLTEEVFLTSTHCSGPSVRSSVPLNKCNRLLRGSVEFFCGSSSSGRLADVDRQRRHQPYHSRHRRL
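Read-out: AMC fluorescence (360 nm excitation, 450 nm emission), four reads over 2 min, first-to-third difference used. Conditions: cruzain 1.5 nM, Z-FR-AMC 2 uM, pH 5.5 acetate, 5 mM DTT, 0.01% Triton X-100.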
Cruzain inh noDet: qHTS Assay for Promiscuous and Specific Inhibitors of Cruzain (without detergent); AID 1476, 2009; Potency, µM, for the others: max response, negative = inhibition, most hits filed as inhibitors; purified cruzain, Z-FR-AMC fluorescence, no detergent; 200,000 tested, 2.3% active; Cruzipain (Trypanosoma cruzi), P25779;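 further: plate controls were enzyme without inhibitor for no effect and buffer without enzyme for full effect; nearly all actives have a fitted effect of over 40% in size; top concentration of the series not given in the record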
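Purified cruzain at 1.5 nM, pre-incubated 15 min with compound at room temperature in 100 mM sodium acetate pH 5.5, 5 mM DTT, 0.00005% Triton X-100. Reaction started with 2 uM Z-FR-AMC; AMC fluorescence increase over 60 s gives rate.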
RE007 growth inh: qHTS Assay for Inhibitors of the HIV-1 protein Vpr | AID 651644, 2012 | Potency, µM (top dose mostly 92.2 µM), without a hit: top-dose activity change, negative = less growth | S. pombe RE007 Vpr strain, BacTiter-Glo ATP luminescence, 24 h; control for the full effect not named in the record | 360,000 tested, 0.21% active; active = well fitted falling curve with a large enough effect; inconclusive = small, poorly fitted or top-dose-only effect; inactive = no such curve, though single readings can be large or run the other way;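 further: on the % scale 0 is the no-effect control and ±100 the full control effect; nearly all actives have a fitted effect of over 50% in size; the assay follows cell death caused by Vpr and the record does not say whether a fall means rescue or toxicity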
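Fission yeast strain RE007, carrying one chromosomally integrated HIV-1 vpr copy, was seeded at OD 0.01 in PMG+AL medium with 23 nL pinned compound. After 24 h at 30 °C and 99% humidity, viability was read by BacTiter-Glo luminescence.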
SARS PLP yeast: qHTS of Yeast-based Assay for SARS-CoV PLP | S. cerevisiae expressing SARS-CoV PLpro, growth rescue; control for the full effect not named in the record | Potency, µM (doses to about 32.9 µM), for inactives: at the highest dose activity, positive = growth rescue | 330,000 tested, 0.19% active | AID 485353, 2010; active means well fitted rising curve with a large enough effect; inconclusive means small, poorly fitted or top-dose-only effect; inactive means no such curve, though single readings can be large or run the other way; further: 0% is about no effect; nearly all actives have a fitted effect of over 55% in size; growth read by luminescence after 48 h
2A StopGo: High Throughput Screening for Foot and Mouth Disease Virus Antivirals; 410,000 tested, 1.2% active; human cells with a luciferase reporter of 2A StopGo recoding; control for the full effect not named in the record; Potency, µM (series often up to 57.9 µM), inactives show at the highest dose signal change, negative = less light; active = well fitted falling curve with a large enough effect; inconclusive = small, poorly fitted or top-dose-only effect; inactive = no such curve, though single readings can be large or run the other way; tested in HEK293T cells; further: on the % scale 0 is the no-effect control and ±100 the full control effect; nearly all actives have a fitted effect of over 45% in size; luciferase light after 4 h
Active calls of the source: *; ? = inconclusive; / = no result given; & = joins results of further samples; [ ] = another dose, or the depositor's remark. Unless noted, the call rests on the fitted dose curve; in most records, active means well fitted curve in the direction sought with a large enough effect; inconclusive means small, poorly fitted or top-dose-only effect, or another doubt; inactive means no such curve, though single readings can be large; an effect the other way counts as inactive or inconclusive. Potency means the concentration at half of the fitted maximal effect.

SMILES	LASV entry inh	MARV entry inh	NS1 inh	Cruzain inh Det	Cruzain inh noDet	RE007 growth inh	SARS PLP yeast	2A StopGo
C=CCn1c(=N)n(CC(O)c2ccco2)c2ccccc21 (stereo not given)	-9.5%	?	6.1%	3.7%	2.9%	-0.1%	-1.9%	0.5%
Cc1c(NC(=O)c2cccnc2Cl)c(=O)n(-c2ccccc2)n1C	?	?	3.3%	/	/	-6.9%	-1.4%	5.9%
CCOc1ccccc1C(=O)Nc1cccc(-c2nnc(-c3ccccc3)o2)c1	-6.7%	1.7%	10.9%	0.9%	?	1.2%[3.69 µM]	0.8%	6.6%
C/C=C/c1ccc(OCCn2cncn2)c(OC)c1	-7.4%	-0.9%[46.1 µM]	8.1%	2.7%	-5.9%	10.5%	-2.5%	-0.1%
Cc1cc(-c2csc(NC(=O)c3cccc(S(=O)(=O)N(C)C)c3)n2)c(C)n1-c1ccccc1	-0.9%	1.5%	18.0%	-4.8%	7.94µM*	7.2%	0.6%	-18.2%
COc1cc(C(=O)Nc2ccccc2N2CCCCC2)cc(OC)c1OC	?	-29.4%	-7.9%	/	/	-4.5%	-0.1%	?
CCc1cccc(CC)c1NC(=S)NCCc1c(C)[nH]c2ccccc12	?	?	12.6%	-2.7%	1.2%	3.6%	3.2%	16.3%
CC(C)[C@@H](C(=O)NCC1CCC(C(=O)O)CC1)n1nnc2ccccc2c1=O (stereo not given in full)	-3.6%	-2.0%	7.1%	3.7%	8.8%	-10.4%	8.3%	25.6%
COc1ccc(-n2nc(C(=O)NCc3ccco3)c3c4ccccc4n(C)c3c2=O)cc1Cl	-13.5%	-21.5%&-21.5%	1.7%	-3.6%	?	4.5%	1.7%	-19.2%
Cc1nc2ccccc2c(=O)n1NC(=O)C1CC1	10.6%	-0.1%[46.1 µM]	1.6%	/	/	-12.7%	-0.6%	4.9%
COc1ccc(Oc2nc(Oc3ccc(OC)cc3)nc(Oc3ccc(OC)cc3)n2)cc1	-4.8%	6.4%&6.4%	11.4%	1.6%	3.16µM*	-3.0%	-4.9%	-3.1%
COc1ccc(OC)c(NC(=O)c2nnn(Cc3ccc(Br)cc3F)c2N)c1	/	8.8%	-23.2%	-2.3%	-10.1%	7.1%	2.9%	28.3%
Cc1ccc(-n2nc3cc(C)c(NC(=S)NC(=O)/C=C/c4ccco4)cc3n2)cc1	?	?	?	-5.1%	?	0.2%	10.7%	13.2%
CCCCOc1ccccc1NC(=O)CC1SC(=NCC)N(CC)C1=O (stereo not given)	-4.8%	-9.1%	-11.3%	-3.8%	5.7%	-11.1%	-16.9%	?
Brc1ccccc1C1N=C(c2ccccc2)NO1 (stereo not given)	-2.2%	?	-1.5%	/	/	-4.7%	-2.0%	50.0%[activator]
COc1cccc(C=Nc2ccccc2C(=O)Nc2nccs2)c1OC	9.6%	-2.7%	-3.2%	-21.0%	3.4%	-10.9%	-4.8%	0.0%
O=C(Cn1nnc2c(cnn2-c2ccc(F)cc2)c1=O)OC1CCCCC1	16.6%	0.6%[46.1 µM]	-6.3%	-5.2%	-4.4%	-11.7%	-3.4%	-12.4%
Cc1cc(C)nc(SCC(=O)Nc2ccc3c(c2)OCO3)n1	13.8%[46.1 µM]	-2.2%[46.1 µM]	3.1%	/	/	-18.3%	5.9%	0.9%
CCOC(=O)c1[nH]c2ccccc2c1NC(=O)CN1CCCCC1	-11.1%	/	-3.6%	-0.8%	-6.7%	2.6%	3.6%	-1.0%
Cc1ccc(NC(=O)c2ccc(NS(=O)(=O)c3cccc4cccnc34)cc2)cc1	?	-21.6%[46.1 µM]	-2.1%	/	/	-13.3%	-1.5%	15.1%
CCN(CC)CCNC(=O)c1cn(CCOC)c(=O)c2c1c1ccccc1n2C	-8.2%[46.1 µM]	-12.3%&-12.3%[46.1 µM]	1.6%	-5.9%	-4.0%	-8.2%	1.3%	-6.5%&-3.4%
COc1ccccc1Nc1cc(C(=O)NCc2cccnc2)c2ccccc2n1	-15.9%[46.1 µM]	?	0.2%	/	/	17.6%	-0.8%	-0.6%
CC(C)Cc1nnc(NC(=O)CSc2nc(-c3ccccc3)cc(=O)[nH]2)s1	?	6.1%[46.1 µM]	/	/	/	0.8%	6.2%	-25.0%
Fc1ccc(F)c(CNc2ncnc3cc(Cl)ccc23)c1	-20.6%[46.1 µM]	?	-2.7%	/	/	0.0%	-3.0%	?
COc1ccc(/C=C2\CCCC3C2=NN(C(=O)c2scnc2C)C3c2ccc(OC)cc2)cc1 (stereo not given)	1.03µM*	?	4.2%	-9.4%	?	3.8%	10.4%	-18.3%
Cc1cccc2c1cnn2C(=O)Nc1ccc(Br)cc1F	/	/	-4.8%	/	/	-4.6%	-0.7%	39.5%[activator]
COc1ccc(C(=O)NC2CCN(C(=S)Nc3cccc(C)c3)CC2)cc1	2.8%	?	7.4%	1.0%	0.9%	-11.9%	3.9%	/
CCCCCCCc1ccc(-c2ccc(O)cc2)nc1	-6.2%	-2.6%[46.1 µM]	-66.0%	/	/	?	-4.5%	-27.9%
O=C(NC1CCCc2ccccc21)C1CCC(CNS(=O)(=O)c2cccc3nsnc23)CC1 (stereo not given)	/	0.0%	7.2%	-3.4%	11.4%	8.6%	4.9%	-0.2%
COC(=O)CCC(=O)c1oc2ccccc2c1NC(=O)CCCN1C(=O)c2ccccc2C1=O	-4.6%	1.1%	6.5%	1.7%	-4.6%	-0.4%	3.2%	-15.7%
COc1ccccc1CNC(=O)C(C)Oc1ccccc1 (stereo not given)	3.8%	-1.7%	-2.2%	/	/	16.1%	?	-6.2%
Cc1[nH]c2ccccc2c1C(=O)COC(=O)C1CCC(=O)N1 (stereo not given)	16.0%	21.3%	-3.1%	3.3%	1.5%	6.0%	-10.7%	-18.1%
C=CCNC(=S)N/N=C/c1cccc([N+](=O)[O-])c1	-20.9%[46.1 µM]	?	/	/	/	0.9%	3.2%	-14.3%
O=C(NCc1n[nH]c(=S)n1-c1cccc(Cl)c1)c1cccs1	-2.7%	-7.2%[14.2 µM]	/	/	/	-1.6%	3.3%	-12.8%
Cn1cnnc1Sc1nc2ccccc2nc1NS(=O)(=O)c1ccccc1	17.3%	4.9%	5.3%	-0.8%	-9.1%	-15.1%	0.2%	/
CC(C)Oc1cccc(C(=O)NC(=S)Nc2ccccc2N2CCOCC2)c1	2.7%	-6.7%	9.2%	/	/	-15.7%	-10.5%	-5.8%
NC(=O)CSc1nc2c(sc(=S)n2-c2ccccc2)c(=O)[nH]1	17.3%	4.0%[46.1 µM]	3.5%	/	/	4.8%	-0.4%	25.1%
CC(=O)c1ccc(NC(=O)CSc2nc3c(=O)n(C)c(=O)n(C)c3n2C)cc1	19.0%[46.1 µM]	/	/	0.8%	3.7%	/	/	1.3%
CN(Cc1ccco1)c1ncnc2ccc(-c3cccnc3)cc12	/	/	/	-12.8%	-16.6%	/	-3.4%	-2.8%
O=[N+]([O-])c1cc([N+](=O)[O-])c(Oc2cccc(Cl)c2Cl)cc1NN1CCCCC1	/	/	3.1%	/	/	9.0%	2.5%	-18.4%
Cc1ccc(-n2nnc(-c3nsc(NC(=O)c4cccc(Cl)c4)n3)c2C)cc1C	-19.2%[46.1 µM]	/	/	4.8%	?	/	/	-24.9%
COC(=O)c1ccccc1NC(=O)Cc1nc(-c2ccc(OC)cc2)no1	5.6%[46.1 µM]	/	/	1.7%	-15.5%	/	/	-2.4%
CCCN1CCC(N2CCN(c3ccc([N+](=O)[O-])cc3)CC2)CC1	/	/	12.4%	/	/	2.7%	-2.1%	-7.6%
O=S(=O)([O-])CCC[n+]1ccc(Oc2ccccc2)cc1	/	/	39.3%	/	/	1.3%	6.7%	-1.6%
CC(C)c1ccc(S(=O)(=O)N2CCN(C(=O)c3cc(-c4ccccc4)n[nH]3)CC2)cc1	/	/	5.1%	/	/	-1.0%	15.6%	-21.1%
Cc1ccc(C(=O)NCCNC(=O)COc2ccccc2Cl)cn1	-0.3%	-0.2%[46.1 µM]	-8.4%	/	/	9.4%	2.3%	-16.1%
CC1CCN(S(=O)(=O)c2ccc3c(c2)N(CC(=O)NCC(C)c2ccccc2)C(=O)CO3)CC1 (stereo not given)	-15.2%[46.1 µM]	-13.1%[46.1 µM]	/	-3.9%	1.8%	/	/	-1.6%
COc1cccc(CC2(CO)CCCN(Cc3c(C)cc(C)cc3-n3cccn3)C2)c1 (stereo not given)	/	/	-6.8%	/	/	-7.7%	-0.8%	-10.5%
CCOC(=O)c1ccc(OCC(=O)c2ccc(O)cc2O)cc1	-15.0%	-3.8%	-54.6%	-14.6%	-9.1%	1.4%	-9.0%	15.8%
O=C(CSc1nnc(-c2ccc(F)cc2)o1)N1CCN(C(=O)c2ccco2)CC1	-14.0%	11.6%	-4.2%	4.1%	11.0%	5.3%	5.1%	/
The results go on:
SMILES	LASV entry inh	MARV entry inh	NS1 inh	Cruzain inh Det	Cruzain inh noDet	RE007 growth inh	SARS PLP yeast	2A StopGo
O=C(CCN1C(=O)c2cccc3cccc(c23)C1=O)N1CCN(Cc2ccc3c(c2)OCO3)CC1	-14.8%	-10.8%	5.5%	-7.8%	-3.5%	0.2%	5.4%	?
Cc1ccc(NC(=O)Nc2ccc3c(c2)C(=O)OC3)cc1Cl	/	/	-3.9%	/	/	7.0%	1.6%	16.0%
Nc1ccc(C(=O)OCC(=O)N2CCOCC2)cc1[N+](=O)[O-]	25.4%	4.0%	0.8%	-3.5%	-1.1%	-1.8%	?	50.3%[activator]
O=C(N/N=C/c1cn[nH]c1-c1ccc(F)cc1)c1ccncc1	0.5%	-25.9%	8.1%	-1.4%	-9.3%	4.5%	-5.7%	-7.1%
COc1ccc(-c2cc(-c3cc(C)ccc3O)[nH]n2)cc1	?	?	-56.8%	/	/	?	-2.0%	13.6%
CCOc1ccc(NC(=O)C2CC(=O)N(CCc3ccccc3)C2)cc1OC (stereo not given)	10.7%	8.3%	/	/	/	-2.0%	17.0%	-4.0%
